Sa ugtP lethal – growth inhibition of ugtP-null S. aureus, primary screen, RN4220 ugtP deletion, OD600; 16 h; some inactives read as strong as hits; growth inhibition, % (no concentration beside the values); hit rate 0.54% among 330,000; AID 1259309, 2017;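 active = z-score under -3 and OD600 up to 0.15 on both plates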;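 also: plate controls were untreated wells for no effect and antibiotic for full effect; wells of about 80 µL received 100 nL stock; the first replicate is given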
Bead autofluor – compound fluorescence in toxin protease inhibitor counterscreen; hit rate 3.1% among 360,000; compound autofluorescence counterscreen, microsphere flow cytometry; active compounds read high; fluorescence intensity (no concentration beside the values); AID 624483;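 active = at least 3 SD above the mean of all compounds, about 16000 in these data; inconclusive = too few beads counted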;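 also: 100 nL of 1 mM stock went into each well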
BJeLR viability – MLPCN primary cell-based screen for lethality selective to Ras in HRASV12 cells | BJeLR (HRASV12) viability, CellTiter-Glo ATP luminescence, 48 h; reference of the scale not given here | inhibition, % (test concentration not listed) | hit rate 0.17% among 300,000 | AID 1554, 2009;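 active = replicate mean above 50%; inconclusive = above 50% but judged a plate artefact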;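 also: 50 nL library stock added to about 25 µL; numbers are from one replicate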
Mtb hypoxia inh – PubChem AID 1159583; M. tuberculosis hypoxia-regulated fluorescent reporter, fluorescence; fluorescence inhibition, % (concentration not given with the values); hit rate 0.1% among 300,000;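 active = 35 to 45% if threefold the growth effect, above 45% if 1.5-fold the growth effect; inactive = the rest, general growth blockers included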;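 also: wells of about 50 µL received 100 nL stock; 0% = vehicle wells and 100% = reference inhibitor wells; whole bacteria with a GFP reporter of the hypoxia response; strong numbers were not always called active; many hits fall short of the cut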
PrP UTR inh – inhibition of PrP 5' UTR reporter expression | cell-based PrP 5' UTR mRNA reporter, plate reader | inhibition, % (concentration not given with the values) | hit rate 0.35% among 340,000;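 active = every replicate at 50% or more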;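 also: 0 = median of the neutral control wells; tested in H4 reporter cells; numbers are from one replicate; inactives centre near -14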
RN4220 kill – growth inhibition of S. aureus RN4220, primary screen, OD600; hit rate 0.33% among 330,000; 16 h; AID 1259311, 2017; inhibition, % (concentration not given with the values);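 active = z-score of -3 or lower and OD600 up to 0.18 on both plates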;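 also: plate controls were untreated cells for no effect and reference antibiotic for full effect; stock transfer was 100 nL into about 80 µL; one replicate is shown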
Mtb hypoxia inh growth – also measured in Mtb hypoxia inh; calls as there; growth inhibition, %; measured here: M. tuberculosis growth (absorbance);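 0% = vehicle and 100% = reference antibiotic; read after six days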
* = called active by the depositor; ? = inconclusive; / = not tested or not shown.

SMILES | Sa ugtP lethal | Bead autofluor | BJeLR viability | Mtb hypoxia inh | Mtb hypoxia inh growth | PrP UTR inh | RN4220 kill
COc1ccc(OC)c(S(=O)(=O)N2CCCC2C(=O)NC(C)c2ccccc2)c1 (configuration not stated) | 12 | 3389 | 0 | -6 | 6 | -53 | 5.5
CC(C)NCC(=O)C12CC3CC(CC(C3)C1)C2 | 5 | 5711 | -3 | 9 | 2 | -26 | 2.3
Cc1oc(=O)cc(OCc2ccccc2)c1C | 6 | 4220 | / | 0 | 5 | -26 | 5.5
Cc1ccc(C(=O)OCC(=O)N2CCCCCC2)cc1S(=O)(=O)N1CCOCC1 | -5 | 3748 | / | 9 | 9 | -13 | -5.1
O=C(OCC(=O)N1CCN(c2ccccc2)CC1)c1ccccc1[N+](=O)[O-] | 11 | 4139 | -3 | 3 | 6 | -153 | 2.9
CCCCCn1c(=O)[nH]c2cc(C(=O)N3CCN(C(=O)OCC)CC3)ccc2c1=O | 3 | 3364 | 1 | -3 | -12 | -12 | -0.6
Cn1nc(-c2ccccc2)c(C(=O)Nc2ccc(C(F)(F)F)cc2)c1Cl | 1 | 12604 | -3 | 1 | 8 | -64 | 5.6
COCCCNC(=O)c1cccc(OC)c1OC | 0 | 4569 | -13 | / | / | -17 | -0.4
COc1ccc(-c2cn3c(C)c(C(=O)NCCN4CCOCC4)sc3n2)cc1 | 1 | 8888 | -5 | 7 | 4 | -6 | 4.9
O=C(C[n+]1cccc(CNC(=O)c2ccc(OC(F)F)cc2)c1)Nc1ccc(SC(F)F)cc1 | -1 | 2040 | 8 | 2 | 0 | -20 | -1.0
CC(=O)NCCNC(=O)c1ccc(NC2=NC3CS(=O)(=O)CC3S2)cc1 (configuration not stated) | -3 | 4111 | -9 | 11 | -1 | -12 | 1.8
CC(C)c1ccccc1NC(=O)c1ccc2ncsc2c1 | 14 | 2912 | -10 | 0 | -5 | -27 | 4.7
c1cc(-c2noc(CC3CCCCC3)n2)ccn1 | 6 | 2958 | 6 | / | / | -20 | 5.4
CC1=C(C(=O)Nc2ccc([N+](=O)[O-])cc2)C(c2cccc(C(F)(F)F)c2)NC(=S)N1c1ccccc1 (configuration not stated) | -28 | 6417 | 1 | 5 | -6 | -26 | 24
N#CCN(N=Nc1ccccc1)c1ccccc1 | 14 | 3894 | 8 | 8 | 6 | -20 | 3.2
CC(=O)N1[C@H](Cc2ccccc2)C=C[C@]1(C)C(=O)NCc1ccccn1 | / | 4107 | 2 | / | / | 2 | /
CC(C)CC(OC(=O)c1ccco1)C(=O)NCC1CCCO1 (configuration not stated) | 0 | 3485 | -10 | 12 | 14 | -5 | 6.9
Cc1ccc(/C=N/NC(=O)c2ccncc2)o1 | / | 10435 | 9 | / | / | -11 | /
Cc1cc(Nc2ccc(Cl)cc2)n(-c2ccccc2)n1 | 5 | 2912 | -9 | / | / | -4 | -3.5
CCOc1ccccc1CN(CCc1ccc2c(c1)OCO2)Cc1ccccn1 | 2 | 2458 | 5 | 7 | -1 | -9 | -9.7
Cc1cccc(OCC(=O)N/N=C/c2ccc(N(C)C)cc2)c1 | / | 2654 | 5 | / | / | -21 | /
CN1C(=O)c2ccccc2N(C)C1c1ccc2c(c1)OCO2 (configuration not stated) | -7 | 4168 | -4 | / | / | -23 | -1.2
O=C(Nc1cccc(-c2cscn2)c1)C1CCN(Cc2ccsc2)CC1 | 4 | 4466 | -8 | 5 | -11 | -1 | 2.2
C[C@@]12CCC3[C@@](CCC4[C@@]3(C)CCC[C@@]4(C)C(=O)N3CCCCC3)(CC1=O)C2 (some centres not stated) | 6 | 3995 | / | 5 | -1 | -23 | 2.9
O=[N+]([O-])/C=C/c1ccc2c(ccn2Cc2ccccc2)c1 | / | 3037 | 32 | / | / | 11 | /
O=C(Cc1ccccc1F)Nc1ccc(S(=O)(=O)Nc2ncccn2)cc1 | -5 | 2943 | -5 | -5 | 8 | -17 | 2.8
COc1ccc(-c2c(C)oc3ccc(C)cc23)cc1 | 84* | 23892* | -1 | 2 | 4 | -53 | 6.1
CC(Oc1ccccc1)C(=O)NNS(=O)(=O)c1ccc([N+](=O)[O-])cc1 (configuration not stated) | -1 | 11385 | 0 | -3 | -10 | -15 | 2.8
Cc1ccc(-n2c(O)c(C=NC3CCS(=O)(=O)C3)c3ccccc3c2=O)cc1 (configuration not stated) | 4 | 11192 | 9 | 6 | 4 | -32 | 2.4
Cc1cc(C)n(-c2c(F)c(F)c(COC(=O)c3ccccc3)c(F)c2F)n1 | 18 | 3058 | 7 | 6 | -3 | -7 | 5.0
O=C(CCN1CCCO1)N1CCCC(N2CCN(c3ccccc3F)CC2)C1 (configuration not stated) | 4 | 5672 | 3 | 1 | 4 | -12 | 0.3
N#Cc1cc([N+](=O)[O-])ccc1NC(=O)COC(=O)CC1CCCC1 | 9 | / | 10 | 0 | 14 | / | 3.1
CC(=O)c1sc(NC(C)c2ccccc2)nc1C (configuration not stated) | 6 | 3744 | -1 | 10 | 8 | -17 | 3.8
CCN(CC)C(=O)Cn1c(=O)n(CCC(=O)Nc2ccc(F)cc2)c(=O)c2sccc21 | 5 | 5555 | 4 | 3 | 2 | -116 | 2.1
COc1ccc(CNC(=O)CCCCCNC(=O)N2CCn3c2nc2ccccc23)cc1 | 13 | 5605 | 2 | 4 | 4 | -17 | 2.2
COCC1CCN(C(=O)CCc2nnc(CCCCc3ccccc3)o2)CC1 | 10 | 2848 | 9 | 1 | 8 | -22 | 1.3
CCCNC(=O)NC(=O)CSc1ccc(C)cc1C | 0 | 2593 | 5 | 4 | 0 | -12 | 2.8
COc1ccc(C2/C=C\CC(NS(=O)(=O)c3ccc(C)cc3)CC(=O)N2Cc2ccccc2F)cc1 (configuration not stated) | 13 | 2909 | / | 3 | 3 | -27 | 4.5
O=C(NCCc1ccc(Cl)cc1)C1CCN(c2cnccn2)CC1 | 9 | 15805 | -3 | -2 | 1 | -15 | 6.5
Cn1cc(CC(=O)NCc2ccc(F)cc2)c2ccccc21 | 8 | 3584 | -1 | 8 | 8 | -21 | 4.8

By substructure, those above containing an aryl thioether with sulfur outside any ring.
SMILES | Sa ugtP lethal | Bead autofluor | BJeLR viability | Mtb hypoxia inh | Mtb hypoxia inh growth | PrP UTR inh | RN4220 kill
O=C(C[n+]1cccc(CNC(=O)c2ccc(OC(F)F)cc2)c1)Nc1ccc(SC(F)F)cc1 | -1 | 2040 | 8 | 2 | 0 | -20 | -1.0
CCCNC(=O)NC(=O)CSc1ccc(C)cc1C | 0 | 2593 | 5 | 4 | 0 | -12 | 2.8

(more compounds)
SMILES | Sa ugtP lethal | Bead autofluor | BJeLR viability | Mtb hypoxia inh | Mtb hypoxia inh growth | PrP UTR inh | RN4220 kill
CC1CCN(c2ccc(S(=O)(=O)NC3=NCCCCC3)cc2[N+](=O)[O-])CC1 | 3 | 4257 | -2 | 2 | 7 | -6 | 8.4
C/C=N/NC(=O)CCCC(=O)N/N=C/C | / | 2495 | -2 | / | / | -21 | /
O=C(NCc1cccnc1)/C(=C/c1ccc(-c2cccc(Cl)c2)o1)S(=O)(=O)c1ccccc1 | 2 | 2163 | 7 | / | / | 3 | 2.3
COc1ccc(CC2CN3C(=NCC3C)N2CC(C)NC(=O)c2ccc(C)c(Br)c2)cc1 (configuration not stated) | 3 | / | / | 12 | 7 | / | 5.0
Cc1nc2c(-c3ccc(F)cc3)c(C)nn2c(C)c1CCC(=O)N1CCN(c2ccccc2)CC1 | 17 | 5572 | -8 | 2 | -3 | -5 | 4.3
CC(C)c1ccc(/C=C2\SC(=O)N(CC(=O)NC3CCS(=O)(=O)C3)C2=O)cc1 (configuration not stated) | -6 | 5488 | -2 | -1 | 4 | -65 | 2.7
CN(C)C(=O)c1cccn(Cc2ccc(C(F)(F)F)cc2)c1=O | 6 | 4356 | -10 | 17 | -1 | -17 | 3.4
CC1CN=C(NCCc2ccccc2)S1 (configuration not stated) | 2 | 4174 | -1 | -4 | 7 | -43 | 6.8
O=C(NN=Cc1ccc(Br)cc1)c1ccc(Br)o1 | 6 | / | / | 4 | 4 | / | -0.9
CC(C)Oc1ccc(/C(O)=C2/C(=O)C(=O)N(CCN3CCNCC3)C2c2ccc(C(C)C)cc2)cc1 (configuration not stated) | 15 | 3829 | 4 | 10 | 16 | -12 | -0.5

Taken from the entries so far (three entries):
SMILES | Sa ugtP lethal | Bead autofluor | BJeLR viability | Mtb hypoxia inh | Mtb hypoxia inh growth | PrP UTR inh | RN4220 kill
CC1CCN(c2ccc(S(=O)(=O)NC3=NCCCCC3)cc2[N+](=O)[O-])CC1 | 3 | 4257 | -2 | 2 | 7 | -6 | 8.4
C/C=N/NC(=O)CCCC(=O)N/N=C/C | / | 2495 | -2 | / | / | -21 | /
O=C(NCc1cccnc1)/C(=C/c1ccc(-c2cccc(Cl)c2)o1)S(=O)(=O)c1ccccc1 | 2 | 2163 | 7 | / | / | 3 | 2.3

(continued)
SMILES | Sa ugtP lethal | Bead autofluor | BJeLR viability | Mtb hypoxia inh | Mtb hypoxia inh growth | PrP UTR inh | RN4220 kill
COc1ccc(-c2nnc(SCC(=O)Nc3cccnc3Cl)n2C)cc1 | 2 | ? | 6 | 0 | 10 | 1 | 0.5
COC(=O)[C@]1(Cc2ccccc2)NC(c2ccc(-c3cccc(Cl)c3)cc2)C2C(=O)N(C)C(=O)C21 (some centres not stated) | 5 | / | / | 2 | 7 | / | 17
O=C(Nc1cccc(O)c1)c1ccc(Br)c(S(=O)(=O)N2CCCCC2)c1 | -6 | 24544* | -9 | 4 | 13 | -39 | 1.9
O=C(N/N=C/c1ccccc1O)C1SCCCS1 | / | 3304 | -1 | / | / | -7 | /
Cc1nn(-c2ccccc2)c(N2CCCC2)c1C=NNC(=O)c1cccc(S(=O)(=O)Nc2ccc(Cl)cc2)c1 | -28 | / | / | 1 | -4 | / | -3.0
O=C(COc1cccc2cccnc12)NCc1cccs1 | -5 | 4423 | 9 | 8 | -4 | -1 | 1.0
Cc1ccccc1C(=O)NCCCNC(=O)c1ccco1 | 7 | 4802 | 10 | -11 | -4 | -57 | 0.8
CC(=O)c1c(O)cc(C)n(Cc2ccccc2)c1=O | 0 | 8409 | 13 | 15 | 6 | / | 4.7
Cc1ccccc1Cn1cc(NC(=O)c2cc(C3CC3)on2)cn1 | 3 | 4143 | -14 | 14 | 6 | -38 | 4.0
O=C(COc1cc2oc(=O)c3c(c2cc1Cl)CCC3)NCC(O)c1ccccc1 (configuration not stated) | 3 | 5059 | -4 | 4 | -3 | -19 | 1.4
COc1ccc(CCNC(=O)c2nnn(-c3ccccc3OC)c2N)cc1OC | 9 | 9836 | -8 | -79 | -16 | -16 | 4.4
Cc1cc(C)c2nc(C(F)(F)F)nc(N3CCN(C(=O)c4ccco4)CC3)c2c1 | 22 | 4150 | 4 | 7 | 32 | -13 | -4.2
CC(=NNC(=O)c1ccccc1[N+](=O)[O-])c1ccc(Br)s1 | 10 | / | / | 12 | 2 | / | 7.7
Cc1c(N=Nc2c(-c3ccc([N+](=O)[O-])cc3)[nH]n(C(N)=S)c2=O)cccc1[N+](=O)[O-] | 13 | 4176 | / | 9 | 16 | -11 | -0.8
Nc1ccccc1Nc1c(F)c(F)nc(F)c1Cl | 16 | 3574 | -3 | 3 | 6 | -31 | 5.5
CCNC(=S)N(CCc1c(C)[nH]c2ccc(C)cc12)Cc1ccco1 | 11 | 4352 | 5 | 1 | 4 | 5 | 16
O=C(CN1CCN(C(=O)c2ccccc2)CC1)NC(=O)NCCC1=CCCCC1 | 0 | 3612 | / | -3 | 8 | 1 | 3.0
CN(C(=O)CCS(=O)(=O)c1ccc2c(c1)oc(=O)n2C)C1CCCCC1 | 12 | 4518 | -9 | 4 | 0 | -5 | 5.1
Cc1ccc(-n2c(N)c(C(N)=O)sc2=S)c(C)c1 | 4 | 18506* | 0 | -4 | 6 | 13 | -1.7
O=C(CN1C(=O)NC2(CCCC2)C1=O)NCc1ccc(Cl)cc1 | 3 | 2956 | / | -2 | 2 | -9 | 3.2
CC(C)COC(=O)c1ccc(N2C(=O)c3ccccc3C2=O)cc1 | -4 | 2904 | 1 | -11 | 2 | -53 | 1.3
CC(C)n1cnc2cc(NC(=O)c3ccco3)ccc21 | -2 | 3918 | -2 | 6 | -10 | -29 | 1.3
O=C(NCCN1CCCCC1)Nc1ccc([N+](=O)[O-])cc1 | 9 | 3026 | -15 | 9 | 2 | -49 | 0.7
CCC[N+](CC#Cc1ccccc1)(CCC)CC(=O)c1ccc(Cl)cc1 | 4 | 6766 | 12 | 19 | 0 | -20 | 16
O=S(=O)(c1ccc(Br)s1)N1CCN(c2ccnc3cc(Cl)ccc23)CC1 | -13 | 4588 | 0 | 3 | 3 | -8 | 0.7

Rows were taken by chance. Share with any hit: about 4%.
